Bead autofluor – compound fluorescence in toxin protease inhibitor counterscreen; compound autofluorescence counterscreen, microsphere flow cytometry; hits give high values; 360,000 tested, 3.1% active; fluorescence intensity (concentration not given with the values); AID 624483;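 active means at least 3 SD above the mean of all compounds, about 16000 in these data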;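 further: 100 nL of 1 mM stock went into each well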
PrP 5UTR inh – suppresses PrP 5' UTR mRNA reporter expression. AID 488862. cell-based PrP 5' UTR mRNA reporter, plate reader. 340,000 tested, 0.35% active. inhibition, % (concentration not given with the values);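 active means every replicate at 50% or more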;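 further: 0 = median of the neutral control wells; tested in H4 reporter cells; numbers are from one replicate; inactives centre near -14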
Active calls of the source: *. A portion of the library; rates above refer to the full screens.

SMILES | Bead autofluor | PrP 5UTR inh
O=C(Nc1cccc(Cl)c1)c1nc[nH]c1C(=O)NCCCNC(=O)c1[nH]cnc1C(=O)Nc1cccc(Cl)c1 | 3860 | -6.9
Cn1c(=O)c2[nH]c(C3CC3)nc2n(C)c1=O | 2995 | -14.5
N/C(=N\OC(=O)c1ccc([N+](=O)[O-])cc1)c1ccccn1 | 3459 | -70.5
CSC1SCC2C(=O)N(C)C(C(C)C)C(=O)OCC(NC(=O)c3cnc4ccccc4n3)C(=O)NC(C)C(=O)N(C)C1C(=O)N(C)C(C(C)C)C(=O)OCC(NC(=O)c1cnc3ccccc3n1)C(=O)NC(C)C(=O)N2C (configuration not stated) | 3610 | 92.0*
COc1ccc(NC2=Nc3ccccc3N[C@@]23C[C@H]2CCCC(=O)N4CC[C@@H](C3)[C@@H]24)cc1 | 3430 | -16.4
COc1ccc(CNCCS(=O)(=O)NCc2ccccc2)cc1 | 3644 | -17.6
CCN1/C(=C2/OC(=S)N(C)C2=O)Sc2ccccc21 | 4173 | -61.8
COc1ccc(CCN2CC(C(=O)OCC(=O)NC(Cc3ccccc3)C(C)=O)CC2=O)cc1OC (configuration not stated) | 2979 | 2.1
C=CC[C@@H](CC(=O)N[C@@H](CO)Cc1ccccc1)C(=O)N[C@H](COC(=O)[C@H](CC=C)CC(=O)OC(C)(C)C)Cc1c[nH]c2ccccc12 | 4293 | -34.2
CCN(CC)CCC(=O)N1C/C(=C/c2ccccc2)C(=O)/C(=C\c2ccccc2)C1 | 3408 | -31.0
C=CC[C@H](CC(=O)NCCO)C(=O)N[C@@H](COC(=O)[C@@H](CC=C)Cc1ccc(F)cc1)Cc1ccccc1 | 3901 | 11.0
O=C(Oc1cccc2c(O)cccc12)c1ccccc1Cl | 5014 | -23.1
CCN1C[C@@H]2[C@@H]3C(=O)N(C)C(=O)[C@@H]3[C@](CC)(C1=O)N2C(=O)c1ccccc1 | 3814 | -20.1
C=C(C)C(=O)Nc1cccc(C2=NOC3(C2)C[C@H](C(N)=O)N(C(=O)C(c2ccccc2)c2ccccc2)C3)c1 (some centres not stated) | 2975 | -2.3
CCCSc1ccc([C@@H]2[C@@H]3C(=O)N(CC)C(=O)[C@@H]3[C@]3(C(=O)OC)CCCCN23)cc1 | 2837 | -7.7
C#CCOCCOCCOCCNc1nc(N2CCN(C(=O)Cn3cc(CC(C)O)nn3)CC2)nc(N2CCN(C(=O)[C@H]([C@@H](C)O)n3cc(CCCCN)nn3)CC2)n1 (some centres not stated) | 3711 | -1.5
CC1(C)Oc2c(ccc(O)c2CN2CCOCC2)C2=C1CCCC2 | 4064 | -16.0
CCCOc1ccc(C2=CC(=O)C[C@H](c3ccc(OC)cc3)C2)cc1 | 3704 | -29.7
O=C(Nc1cccc2ccccc12)c1ccc(Br)o1 | 3407 | -1.4
COC(=O)[C@@H](Cc1ccccc1)N(Cc1ccccc1)S(=O)(=O)N(Cc1ccccc1)[C@H](Cc1ccccc1)C(=O)OC | 3498 | -12.3
Cc1cc2ccccn2c1C(=O)c1ccc(N/N=C/c2ccc(C(=O)O)cc2)c([N+](=O)[O-])c1 | 3479 | -13.6
O=S(=O)(O)c1cc(Cl)cc(N=Nc2ccc(O)cc2O)c1O | 2860 | -8.0
CC(C)(C)OC(=O)N[C@H](C(=O)OC(C)(C)C)c1ccccc1 | 4130 | -21.3
COc1ccc2c(c1)OC[C@H]1[C@H]2N2C(=O)c3cc(OC)ccc3NC(=O)[C@@]2(C)[C@H]1c1ccccc1 | 4161 | -25.1
COc1ccc(C(=O)C(C)C(C)=O)c(OCc2ccccc2)c1OC (configuration not stated) | 2971 | -11.4
Cc1ccc2sc(C)cc(=O)c2c1 | 4140 | -3.0
CN1CC[C@@H]2C(=O)N3CCc4ccc(Br)cc4[C@@H]3C[C@@H]21 | 3702 | -7.0
O=P(O)(O)CN1CCNCCN(CP(=O)(O)O)CCNCC1 | 3510 | -24.8
C[C@H]1CN([C@@H](C)CO)C(=O)Cc2cc(NS(C)(=O)=O)ccc2O[C@@H]1CN(C)Cc1ccc(Cl)c(Cl)c1 | 2816 | -14.2
CCCCN(C(C)=O)c1ccc2c(c1)C1CC2CCN1C(=O)OCc1ccccc1 (configuration not stated) | 3322 | -13.7
CC(=O)OCC1=C(C(=O)O)N2C(=O)[C@@H](NC(=O)Cc3ccccc3)[C@H]2SC1 | 5181 | -8.4
COc1cccc2c1[C@@H]1CN(CCCCn3c(=O)[nH]c4c(sc5ncc(-c6ccccc6)nc54)c3=O)C[C@@H]1CO2 | 5935 | -11.8
Cc1cccc(CC2(O)C(=O)Nc3ccccc32)n1 (configuration not stated) | 2886 | -14.0
CCN1C(N(C)CCc2c[nH]c3ccccc23)=N[C@@H](c2cccc(C(F)(F)F)c2)C(C(=O)OC)=C1C | 4728 | -6.2
COC(=O)C1CC(O)C(O)C(O)C1 (configuration not stated) | 4055 | -11.2
COc1ccc(NC(=O)Nc2ccc3c(c2)C(=O)N([C@H](C)CO)C[C@H](C)[C@@H](CN(C)C(=O)Nc2ccc(OC)cc2)O3)cc1 | 3886 | -19.4
O=C(O)C1=CC[C@@H](c2ccc(Cl)cc2)N(S(=O)(=O)c2ccc(Cl)cc2)C1 | 3443 | -16.0
COc1ccc(C=C2SC(=S)NC2=O)cc1 | 3610 | -11.9
CN1C[C@@H]2[C@@H]3C(=O)N(Cc4ccccc4)C(=O)[C@@H]3[C@](Cc3ccccc3)(C1=O)N2C(=O)c1ccc(Cl)cc1 | 4926 | -18.0
COc1ccc(C[C@@H]2OC3(C=CC(=O)C=C3)O[C@H]2Cc2ccc(OC)cc2)cc1 | 4483 | -55.0
CCCCCCCCNCCS(=O)(=O)NCCCCCCCC | 3606 | 1.6
O=C1CC2(CCN1)CCN(Cc1ccccc1)CC2 | 4537 | 1.7
Cc1c(C(=O)c2ccc3c(c2)OCO3)ccc2c1OCO2 | 3710 | -8.1
Cc1cccc(NC(=S)N2CCC(C(=O)c3ccc(F)cc3)CC2)c1 | 3952 | -21.4
COC(=O)C1=C(c2ccccc2OCc2ccccc2)C[C@@H]2CC[C@H]1N2C(=O)NCCOc1ccccc1 | 3945 | -7.4

Ordered by molar mass (descending): three of the compounds above.
SMILES | Bead autofluor | PrP 5UTR inh
COc1cccc2c1[C@@H]1CN(CCCCn3c(=O)[nH]c4c(sc5ncc(-c6ccccc6)nc54)c3=O)C[C@@H]1CO2 | 5935 | -11.8
Cc1cccc(NC(=S)N2CCC(C(=O)c3ccc(F)cc3)CC2)c1 | 3952 | -21.4
COC(=O)C1CC(O)C(O)C(O)C1 (configuration not stated) | 4055 | -11.2

Record cards (already shown).
Profile of COc1ccc(C=C2SC(=S)NC2=O)cc1 → Bead autofluor = 3610; PrP 5UTR inh = -11.9
Profile of COC(=O)C1CC(O)C(O)C(O)C1 (configuration not stated) → Bead autofluor = 4055; PrP 5UTR inh = -11.2

More compounds.
SMILES | Bead autofluor | PrP 5UTR inh
O=C(O/N=C1/CCSc2ccccc21)c1ccc(F)cc1 | 24780* | -10.4
Cc1cc(N)nc(=O)n1C1CC(O)C(CO)O1 (configuration not stated) | 3601 | 59.3*
CC12C=CC(=O)C=C1C(F)CC1C3CCC(O)(C(=O)CO)C3(C)CC(O)C12F (configuration not stated) | 4104 | -4.5
C=CC[C@H](CC(=O)N(CCO)Cc1ccccc1)C(=O)N[C@@H](C)COC(=O)[C@H](CC=C)CC(=O)OC(C)(C)C | 3903 | -17.8
COc1cccc2c1C(=O)c1c(O)c3c(c(O)c1C2=O)CC(O)(C(C)=O)CC3OC1CC(O)C(O)C(C)O1 (configuration not stated) | 3003 | 6.7
Cc1nnc(-c2ccc(N3CCOCC3)c([N+](=O)[O-])c2)o1 | 3979 | -12.7
COc1ccc(NC(=O)CN2C(=O)NC(C)(C3CC3)C2=O)c(OC)c1 (configuration not stated) | 2907 | -25.0
C=CC[C@@H](CC(=O)N[C@@H](CO)Cc1ccccc1)C(=O)N[C@H](COC(=O)[C@@H](CC=C)Cc1ccc(F)cc1)Cc1ccccc1 | 4229 | 3.2
CC(C)n1cnc2c(NCc3ccccc3)cc(Cc3ccc(F)cc3)cc21 | 4214 | -11.3
CCOC(=O)[C@H]1[C@H]2COc3ccc(OC)cc3[C@@H]2N2C(=O)c3ccc(C)cc3NC(=O)[C@@]12C | 3934 | -25.6
C[C@H]1COC(=O)[C@@H](Cc2ccc(F)cc2)C/C=C\C[C@@H](CC(=O)NCCO)C(=O)N1 | 3016 | -20.9
CCOC(=O)[C@H]1[C@H]2COc3ccc(Br)cc3[C@@H]2N2C(=O)c3cc(Br)ccc3NC(=O)[C@@]12C | 3084 | -12.1
Cc1cccc[n+]1CC(=O)c1ccc([N+](=O)[O-])cc1 | 3299 | -25.0
CC(C)C[C@H]1CN([C@@H](CC(C)C)CN2CCC[C@@H]2CN2C(=O)C(=O)NC[C@@H]2Cc2ccccc2)C(=O)C(=O)N1CC1CCCCC1 | 2986 | -33.3
NC(C(=O)O)C1ON=C(Cl)C1O (configuration not stated) | 3330 | -36.0
CNC(=O)[C@H]1O[C@@H](n2cnc3c(NCc4cccc(I)c4)ncnc32)[C@H](O)[C@@H]1O | 5568 | -3.6
C[C@H]1CN=C(Nc2ccccc2)N1CCc1ccccc1 | 3585 | -16.2
COC1=C(C)C(=O)O[C@]12C(=O)C(C)=C1CCCCN3[C@H]([C@@H]4C[C@H](C)C(=O)O4)CC[C@]132 | 3558 | -26.6
C=CCC[C@H](Cc1ccc(F)cc1)C(=O)OC[C@@H](Cc1c[nH]c2ccccc12)NC(=O)[C@H](CC=C)CC(=O)N(CCO)Cc1ccccc1 | 3973 | -3.0
Cc1ccc2c(c1)N(CC(=O)Nc1ccccc1F)C(=O)C(C)O2 (configuration not stated) | 4038 | -34.4
C[C@@H]1COC(=O)[C@H](Cc2ccc(F)cc2)CC/C=C/C[C@@H](CC(=O)N[C@H](CO)Cc2ccccc2)C(=O)N1 | 3881 | -22.9
COc1cc(/C=C(\C#N)C(=O)c2ccc(O)c(O)c2)cc(I)c1O | 6502 | -18.1
CCN1C(=O)CC(c2ccccc2)N(C2CCCC2)c2nc(Nc3ccc(C(=O)NC4CCN(C)CC4)cc3OC)ncc21 (configuration not stated) | 3912 | -0.2
CO[C@@]1(NC(=O)C2SC(=C(C(N)=O)C(=O)O)S2)C(=O)N2C(C(=O)O)=C(CSc3nnnn3C)CS[C@@H]21 (some centres not stated) | 4210 | -6.7
O=C(O)C1CCCCC1C(=O)Nc1ccc(S(=O)(=O)N2CCOCC2)cc1 (configuration not stated) | 2807 | -4.2
CC(=O)Nc1cc(C)ns1 | 11533 | 68.8*
O=C1NC(=O)N(c2ccccc2)C(=O)/C1=C/c1ccoc1 | 2653 | -28.6
CCCCNC(=O)N(O)C1N(/N=C/c2ccco2)C(=S)SC1(C)C (configuration not stated) | 3382 | -21.9
COc1ccc(-c2oc(=O)c3cc(OC)c(OC)cc3c2/C=C/c2ccc(OC(C)=O)cc2)cc1 | 3479 | 2.3
COc1ccc(NC(=O)Nc2ccc3c(c2)CC(=O)N([C@H](C)CO)C[C@H](C)[C@H](CN(C)Cc2ccc(C(=O)O)cc2)O3)cc1 | 3847 | -2.8

The final 2 records of the section above are carried over, then new ones follow.
SMILES | Bead autofluor | PrP 5UTR inh
COc1ccc(-c2oc(=O)c3cc(OC)c(OC)cc3c2/C=C/c2ccc(OC(C)=O)cc2)cc1 | 3479 | 2.3
COc1ccc(NC(=O)Nc2ccc3c(c2)CC(=O)N([C@H](C)CO)C[C@H](C)[C@H](CN(C)Cc2ccc(C(=O)O)cc2)O3)cc1 | 3847 | -2.8
COc1cccc2c1C(=O)c1c(O)c3c(c(O)c1C2=O)C[C@@](O)(C(=O)CO)C[C@@H]3OC1CC(N)C(O)C(C)O1 (some centres not stated) | 3096 | 41.1
CCCCN1CCNC[C@@H]1c1ccccc1 | 3264 | -24.0
CO[C@@H]1[C@@H](OC(N)=O)[C@@H](O)C(Oc2ccc3c(O)c(NC(=O)c4ccc(O)c(CC=C(C)C)c4)c(=O)oc3c2C)OC1(C)C (some centres not stated) | 4273 | -2.8
CC(C)C[C@H](NP(=O)(O)O[C@@H]1O[C@@H](C)[C@H](O)[C@@H](O)[C@H]1O)C(=O)N[C@@H](Cc1c[nH]c2ccccc12)C(=O)O | 5773 | -39.3
C/C(=N\O)c1ccco1 | 3668 | -16.0
CCn1cc(C(=O)NC2CCCC2)c(=O)c2cc(S(=O)(=O)N3CCOCC3)ccc21 | 4655 | -1.4
Brc1ccc(Br)c2cnccc12 | 4438 | -1.1
Fc1ccc(-c2ccc3c(c2)C2CC3CCN2Cc2ccc3c(c2)OCO3)cc1 (configuration not stated) | 3821 | -3.2
COc1ccc(CN2Cc3cnnn3-c3ccccc3C2c2ccccc2)cc1 (configuration not stated) | 2965 | 14.2
CC(C)CC[C@@H](O)[C@](C)(O)C1CC[C@@]2(O)C3=CC(=O)[C@@H]4C[C@@H](O)[C@@H](O)C[C@]4(C)C3CC[C@]12C (some centres not stated) | 3756 | -5.5
COc1ccc2nc(N3C(=O)C(O)=C(C(=O)c4ccco4)C3c3ccco3)sc2c1 (configuration not stated) | 3100 | -11.9
Cc1[nH]c2ccccc2c1/C=N/Nc1nncn1N | 5107 | -13.6
O=[N+]([O-])c1ccc(SNc2ccccc2)c([N+](=O)[O-])c1 | 4137 | -5.0

Source: PubChem
